Ecoli rRNA inh: selective bacterial rRNA inhibition in E. coli | E. coli WT GFP vs humanized-ribosome RFP mutants, fluorescence, 24 h; stronger effect = lower value; DMSO median 0, no signal -100 | actives 1.6% (n = 350,000) | GFP signal change (wild-type ribosome), % (no concentration beside the values);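 active = significant combined selectivity score with lowered wild-type GFP, culture density cut under 30%, mutant RFP and density less affected; inactive = any of these conditions unmet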; note: one replicate is shown; some compounds called inactive have numbers as strong as hits
Beta2AR agonist: human beta-2 adrenergic receptor agonism by FAP. response, % (concentration not given with the values). actives 0.43% (n = 340,000). Am2.2-beta2AR cells, FAP receptor internalization, flow cytometry; reference of the scale not given here;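 active = response above a set limit, near 3 SD of response in nonfluorescent compounds, cut at about 42% in these data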;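 note: stock transfer was 100 nL into about 11 µL; a reference agonist was the positive control; negative values mostly stem from fluorescent compounds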
Target sequence (P07550 whole entry, looked up): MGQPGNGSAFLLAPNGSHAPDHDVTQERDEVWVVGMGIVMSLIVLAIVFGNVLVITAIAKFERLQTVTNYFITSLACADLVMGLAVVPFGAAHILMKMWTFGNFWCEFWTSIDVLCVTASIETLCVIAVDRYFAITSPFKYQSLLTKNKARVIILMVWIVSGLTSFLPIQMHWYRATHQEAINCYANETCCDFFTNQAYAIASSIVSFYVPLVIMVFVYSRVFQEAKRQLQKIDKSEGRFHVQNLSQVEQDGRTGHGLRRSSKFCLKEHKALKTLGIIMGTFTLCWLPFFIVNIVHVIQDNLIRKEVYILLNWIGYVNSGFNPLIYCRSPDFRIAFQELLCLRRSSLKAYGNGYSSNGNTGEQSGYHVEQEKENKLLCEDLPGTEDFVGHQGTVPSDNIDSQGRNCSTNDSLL
HNF4A DNA FP: change in binding of human HNF4 alpha to DNA. P41235. HNF4a-FITC DNA binding, fluorescence polarization, 1 h. activity change, % at 10 µM. actives 0.3% (n = 360,000); in the data active = activity change above about 30%, passing the limit was not always enough;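 note: controls were the assay level and a saturating level of protein; the project sought stronger binding though the title names inhibitors; some compounds called inactive have numbers as strong as hits; positive values seem to mean higher polarization but the record does not say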
E coli growth: blocks Escherichia coli growth. actives 0.21% (n = 330,000). OD600, 23 h; stronger effect = lower value. OD600 absorbance (test concentration not listed). AID 1053175;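 active = OD600 absorbance below the run mean of sample wells minus 3.6 SD, in any replicate, cut at about 0.56 in these data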;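 note: stock transfer was 300 nL into about 60 µL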
ALR inh: inhibitors of human sulfhydryl oxidase ALR; actives 3.8% (n = 290,000); P55789; purified ALR, DTT oxidation, H2O2 HRP-luminol luminescence; inhibition, % (concentration not given with the values);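 active = mean and each replicate at 75% or more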;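 note: stock transfer was 7.5 nL into about 7.5 µL; 0% = neutral wells and 100% = wells with inactivated enzyme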
FGF22 binding: binders of recombinant human FGF22 by thermal shift; Q9HCT0; SYPRO orange fluorescence; percent of sucrose octasulfate shift, DMSO zero; calls only at 9.99 µM; actives 1.5% (n = 340,000); AID 651658;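 active = melting point raised past a set limit in the mean and every replicate; three in four hits are not shown here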
Target sequence (Q9HCT0 whole entry, looked up): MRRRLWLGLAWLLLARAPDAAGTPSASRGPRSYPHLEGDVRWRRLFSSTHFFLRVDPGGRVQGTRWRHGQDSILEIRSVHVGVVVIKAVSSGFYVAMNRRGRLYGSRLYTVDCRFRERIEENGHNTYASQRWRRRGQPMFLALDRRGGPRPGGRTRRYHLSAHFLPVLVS
UCH37 inh: inhibitors of human deubiquitinating enzyme UCH37; AID 588478; purified proteasome/UCH37, Ub-AMC cleavage fluorescence; Q9Y5K5; actives 0.33% (n = 330,000); inhibition, % (test concentration not listed);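 active = mean of two replicates above 20%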;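 note: 0% = compound-free wells with enzyme and 100% = wells lacking proteasome; stock transfer was 100 nL into about 20 µL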
Target sequence (Q9Y5K5 whole entry, looked up): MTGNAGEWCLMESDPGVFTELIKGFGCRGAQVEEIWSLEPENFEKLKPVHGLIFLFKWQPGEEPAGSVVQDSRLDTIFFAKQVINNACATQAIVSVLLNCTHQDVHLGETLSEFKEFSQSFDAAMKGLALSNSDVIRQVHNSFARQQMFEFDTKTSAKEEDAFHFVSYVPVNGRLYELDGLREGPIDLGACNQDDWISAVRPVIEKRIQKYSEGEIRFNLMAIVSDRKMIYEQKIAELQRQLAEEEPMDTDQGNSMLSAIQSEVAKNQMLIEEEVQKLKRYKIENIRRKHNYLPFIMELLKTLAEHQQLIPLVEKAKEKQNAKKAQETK
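assay system = human UCH37 enzyme supplied as purified proteasome complex | amount = proteasome at 0.15 nM in the dispensed enzyme solution | schedule = 30 min compound-proteasome preincubation then 25 min substrate reaction, room temperature | measured by = fluorescence, ex 355 nm, em 460 nm | benchmarks = no-proteasome wells (full inhibition) and compound-free wells (no inhibition)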
Ecoli rRNA inh OD600: recorded beside Ecoli rRNA inh, whose call it bears; OD600 change, %; measured here: OD600 growth;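 optical density of the mix in the first replicate; 0 = DMSO median and -100 = no signal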
Ecoli rRNA inh RFP: second read-out of Ecoli rRNA inh, no call of its own (marks repeat the call); RFP signal change, %; measured here: RFP humanized mutant strains;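 first replicate; 0 = DMSO median and -100 = no signal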
Starred values were filed as active, the others as inactive. Not all compounds are listed (hit frequency here may not be typical).

Results for Cc1nc(NN)nc(NCc2ccccc2)n1 ?
Ecoli rRNA inh: 11; Beta2AR agonist: -6; HNF4A DNA FP: -3.0; ALR inh: 1; FGF22 binding: inactive; Ecoli rRNA inh OD600: 12; Ecoli rRNA inh RFP: 2.4

Results for Cc1ccc(C(=O)NC2(C(F)(F)F)N=C3SCCN3C2=O)cc1 (stereo not drawn) ?
Beta2AR agonist: 3; HNF4A DNA FP: 3.7; E coli growth: 0.71; UCH37 inh: -0.3

Results for CCOC(=O)c1cnc(SCc2nc(N)nc(Nc3ccccc3)n2)nc1N ?
Beta2AR agonist: -20; HNF4A DNA FP: 4.8; E coli growth: 0.7; ALR inh: 2; UCH37 inh: 0.6

What do the screens show for `CCOCCc1nnc(NC(=O)C2CC(=O)N(CCc3ccc(F)cc3)C2)s1` (stereo not drawn)?
Ecoli rRNA inh: 2; Beta2AR agonist: 28; HNF4A DNA FP: -1.3; E coli growth: 0.65; ALR inh: 0; FGF22 binding: inactive; UCH37 inh: -2.4; Ecoli rRNA inh OD600: 2; Ecoli rRNA inh RFP: -0.1

Results for COc1cc(C(=O)Nc2ccc(N(C)C)cc2)c([N+](=O)[O-])cc1OC ?
Beta2AR agonist: 13; HNF4A DNA FP: 1.9; E coli growth: 0.7; ALR inh: 89*; FGF22 binding: inactive; UCH37 inh: 7.4

How did CCOC(=O)C1=C(CC)OC(N)=C(C#N)C1c1ccsc1 (stereo not drawn) do in these assays?
Beta2AR agonist: -1; HNF4A DNA FP: -1.0; E coli growth: 0.69; ALR inh: -35; UCH37 inh: -2.4

How did CC(C)OC(=O)CC1C(=O)NCCN1C(=S)NC(=O)CCc1ccccc1 (stereo not drawn) do in these assays?
Ecoli rRNA inh: 4; Beta2AR agonist: 10; HNF4A DNA FP: -0.1; E coli growth: 0.67; ALR inh: -33; FGF22 binding: inactive; UCH37 inh: 0.6; Ecoli rRNA inh OD600: -5; Ecoli rRNA inh RFP: -1.4

How did Clc1ccc(-c2nnc(NCCN3CCCC3)c3ccccc23)cc1 do in these assays?
Ecoli rRNA inh: 0; Beta2AR agonist: 13; HNF4A DNA FP: 4.2; E coli growth: 0.66; ALR inh: -9; FGF22 binding: inactive; UCH37 inh: 4.4; Ecoli rRNA inh OD600: 3; Ecoli rRNA inh RFP: 2.9

How did Nc1cc(C(F)(F)F)cc([N+](=O)[O-])c1N do in these assays?
Beta2AR agonist: -3; HNF4A DNA FP: -2.1; E coli growth: 0.61; ALR inh: -1; FGF22 binding: inactive; UCH37 inh: 4.9

Results for O=C(Cn1cc(Br)ccc1=O)Nc1ccc2c(c1)OCO2 ?
Ecoli rRNA inh: 5; Beta2AR agonist: -7; HNF4A DNA FP: -3.5; E coli growth: 0.69; ALR inh: -6; FGF22 binding: inactive; UCH37 inh: 0.4; Ecoli rRNA inh OD600: 11; Ecoli rRNA inh RFP: -1.6

Three neighbouring compounds from above, for reference:
Results for Cc1nc(NN)nc(NCc2ccccc2)n1 ?
Ecoli rRNA inh: 11; Beta2AR agonist: -6; HNF4A DNA FP: -3.0; ALR inh: 1; FGF22 binding: inactive; Ecoli rRNA inh OD600: 12; Ecoli rRNA inh RFP: 2.4

Results for Cc1ccc(C(=O)NC2(C(F)(F)F)N=C3SCCN3C2=O)cc1 (stereo not drawn) ?
Beta2AR agonist: 3; HNF4A DNA FP: 3.7; E coli growth: 0.71; UCH37 inh: -0.3

Results for CCOC(=O)c1cnc(SCc2nc(N)nc(Nc3ccccc3)n2)nc1N ?
Beta2AR agonist: -20; HNF4A DNA FP: 4.8; E coli growth: 0.7; ALR inh: 2; UCH37 inh: 0.6

Following part
How did COc1ccc(/C=C/C2=CC(C)(C)NC(=S)N2)c(OC)c1 do in these assays?
Ecoli rRNA inh: 6; Beta2AR agonist: 0; HNF4A DNA FP: 1.6; E coli growth: 0.66; ALR inh: 1; FGF22 binding: inactive; UCH37 inh: 0.1; Ecoli rRNA inh OD600: -3; Ecoli rRNA inh RFP: -3.6

Results for COc1ccc2[nH]c(=O)c(-c3nnn(-c4ccccc4)n3)cc2c1 ?
Ecoli rRNA inh: 4; Beta2AR agonist: -2; HNF4A DNA FP: 0.9; E coli growth: 0.69; ALR inh: -14; FGF22 binding: inactive; UCH37 inh: -15; Ecoli rRNA inh OD600: 18; Ecoli rRNA inh RFP: 5.5

Results for COC(C[C@@H]1O[C@H]1[C@@H](O)COCc1ccccc1)OC ?
Ecoli rRNA inh: 6; Beta2AR agonist: -4; HNF4A DNA FP: 2.5; FGF22 binding: inactive; UCH37 inh: 2.6; Ecoli rRNA inh OD600: 0; Ecoli rRNA inh RFP: 9.7

How did CC(=O)Nc1ccc(N(C(=O)c2cnccn2)C(C(=O)NC2CCCCC2)c2ccc(O)cc2)cc1 (stereo not drawn) do in these assays?
Beta2AR agonist: -4; HNF4A DNA FP: -0.6; E coli growth: 0.66; ALR inh: 3; UCH37 inh: 2.8

What do the screens show for `CCOC(=O)Cn1nc(/C=C/c2ccccc2)ccc1=O`?
Beta2AR agonist: -3; HNF4A DNA FP: 0.3; E coli growth: 0.78; ALR inh: -7; UCH37 inh: -26

How did COc1ccc(-c2nc(CS(=O)(=O)CC(=O)NCc3ccccc3Br)c(C)o2)cc1 do in these assays?
Ecoli rRNA inh: 1; Beta2AR agonist: 4; HNF4A DNA FP: -5.9; E coli growth: 0.77; ALR inh: 98*; FGF22 binding: inactive; UCH37 inh: 5.4; Ecoli rRNA inh OD600: -30; Ecoli rRNA inh RFP: 2.2

Results for O=C(O)c1ccc(NCc2ccc(Br)cc2)cc1 ?
Ecoli rRNA inh: -18; Beta2AR agonist: 4; HNF4A DNA FP: 2.8; E coli growth: 0.65; ALR inh: 9; FGF22 binding: inactive; UCH37 inh: 0.5; Ecoli rRNA inh OD600: -30; Ecoli rRNA inh RFP: -9.9

What do the screens show for `CN1C=CC=C/C1=C1/SC(=S)N(Cc2ccccc2)C1=O`?
Beta2AR agonist: -20; HNF4A DNA FP: 3.7; E coli growth: 0.72; ALR inh: 99*; UCH37 inh: 10

Results for CCO[C@@H]1OC(C(=O)N2CCCCCCC2)=C[C@H](c2ccc3c(c2)OCO3)[C@H]1CCCO ?
Ecoli rRNA inh: -12; Beta2AR agonist: -3; HNF4A DNA FP: 6.1; FGF22 binding: inactive; UCH37 inh: 1.1; Ecoli rRNA inh OD600: -12; Ecoli rRNA inh RFP: 14

Results for COc1ccc(OCCCC(=O)Nc2cc(Cl)ccc2-n2cncn2)cc1 ?
Ecoli rRNA inh: -2; Beta2AR agonist: 0; HNF4A DNA FP: 2.1; E coli growth: 0.65; ALR inh: -4; FGF22 binding: inactive; UCH37 inh: 0.2; Ecoli rRNA inh OD600: -4; Ecoli rRNA inh RFP: 0.3

Results for Nc1nc(-c2ccccc2)c(N=Nc2cccc3ccccc23)s1 ?
Beta2AR agonist: 24; HNF4A DNA FP: 0.6; E coli growth: 0.71; ALR inh: -12; FGF22 binding: inactive; UCH37 inh: 8.1

Results for Nc1nccc(-c2nn(-c3ccc(Cl)cc3)ccc2=O)n1 ?
Ecoli rRNA inh: 19; Beta2AR agonist: -11; HNF4A DNA FP: -0.3; E coli growth: 0.66; ALR inh: -1; FGF22 binding: inactive; UCH37 inh: 8.9; Ecoli rRNA inh OD600: 6; Ecoli rRNA inh RFP: 3.1

Results for COc1ccc(NC(=O)CN(C)C(=O)C2CCCO2)cc1 (stereo not drawn) ?
Ecoli rRNA inh: 4; Beta2AR agonist: -2; HNF4A DNA FP: -3.4; E coli growth: 0.69; ALR inh: 4; FGF22 binding: inactive; UCH37 inh: -0.3; Ecoli rRNA inh OD600: 9; Ecoli rRNA inh RFP: 2.1

Results for CCN(CC)C(=O)Cn1c(=O)oc2ccccc21 ?
Ecoli rRNA inh: 15; Beta2AR agonist: -1; HNF4A DNA FP: 1.6; E coli growth: 0.64; ALR inh: -3; FGF22 binding: inactive; UCH37 inh: 1.1; Ecoli rRNA inh OD600: 11; Ecoli rRNA inh RFP: 1.4

How did CC1CCN(S(=O)(=O)N2CCC(C(=O)NCc3ccc4c(c3)OCO4)CC2)CC1 do in these assays?
Beta2AR agonist: -7; HNF4A DNA FP: -1.7; E coli growth: 0.67; ALR inh: 0; UCH37 inh: 0.4

Results for NC(=O)NC(=O)COC(=O)c1ccc(OC(F)F)cc1 ?
Ecoli rRNA inh: 12; Beta2AR agonist: 2; HNF4A DNA FP: -1.5; E coli growth: 0.66; ALR inh: -15; FGF22 binding: inactive; UCH37 inh: -1.8; Ecoli rRNA inh OD600: 12; Ecoli rRNA inh RFP: 2.0

Results for COc1cc(C2NC(=S)NC(C)=C2C(=O)Nc2cc(C)cc(C)c2)ccc1O (stereo not drawn) ?
Ecoli rRNA inh: -4; Beta2AR agonist: 1; HNF4A DNA FP: 0.7; E coli growth: 0.71; UCH37 inh: 1.8; Ecoli rRNA inh OD600: 0; Ecoli rRNA inh RFP: -7.9

What do the screens show for `Cc1ccccc1N1C(=S)NC2c3ccccc3OC1(C)C2C(=O)N(C)C` (stereo not drawn)?
Ecoli rRNA inh: 7; Beta2AR agonist: 1; HNF4A DNA FP: 3.7; E coli growth: 0.7; ALR inh: 1; FGF22 binding: inactive; UCH37 inh: 1.8; Ecoli rRNA inh OD600: -1; Ecoli rRNA inh RFP: -1.6

Results for O=C(OC(C(=O)NCc1ccc(F)cc1)c1ccccc1)c1ccco1 (stereo not drawn) ?
Ecoli rRNA inh: 2; Beta2AR agonist: 5; HNF4A DNA FP: 5.8; E coli growth: 0.67; ALR inh: -5; FGF22 binding: inactive; UCH37 inh: -0.8; Ecoli rRNA inh OD600: 1; Ecoli rRNA inh RFP: -1.6

What do the screens show for `O=C(COC(=O)c1c(Cl)ccc(Cl)c1Cl)NCC1CCCO1` (stereo not drawn)?
Ecoli rRNA inh: -2; Beta2AR agonist: -4; HNF4A DNA FP: -2.2; E coli growth: 0.72; ALR inh: 3; FGF22 binding: inactive; UCH37 inh: 1.0; Ecoli rRNA inh OD600: -9; Ecoli rRNA inh RFP: -3.3

How did Nc1cc(OCC(F)(F)F)cc(OCC(F)(F)F)c1 do in these assays?
Ecoli rRNA inh: 10; Beta2AR agonist: 3; HNF4A DNA FP: -3.9; E coli growth: 0.74; ALR inh: -88; FGF22 binding: inactive; UCH37 inh: 1.7; Ecoli rRNA inh OD600: 5; Ecoli rRNA inh RFP: -2.8

How did C/C=C(/C)C(=O)Nc1cccc(C2=NOC3(C2)C[C@@H](C(N)=O)N(C(=O)CC(c2ccccc2)c2ccccc2)C3)c1 (stereo partly drawn) do in these assays?
Ecoli rRNA inh: 8; Beta2AR agonist: -7; HNF4A DNA FP: 0.5; ALR inh: -2; FGF22 binding: inactive; UCH37 inh: -1.1; Ecoli rRNA inh OD600: -8; Ecoli rRNA inh RFP: 3.6

How did O=C(CSc1ncccn1)NNC(=O)c1ccccc1 do in these assays?
Ecoli rRNA inh: 11; Beta2AR agonist: -10; HNF4A DNA FP: 2.0; E coli growth: 0.68; FGF22 binding: inactive; UCH37 inh: -0.3; Ecoli rRNA inh OD600: 6; Ecoli rRNA inh RFP: 3.3

How did C/C=C/c1ccc(OCCCCOc2ccc(OC)cc2)c(OC)c1 do in these assays?
Beta2AR agonist: 13; HNF4A DNA FP: 4.4; E coli growth: 0.72; UCH37 inh: 1.0

Assay outcomes from PubChem BioAssay.
